Compound activity from PubChem.
NS1 function inh = blocks influenza NS1 protein function; 270,000 tested, 0.4% active; Potency, µM (series often up to 46.1 µM), for inactives: top-dose activity, positive = more growth; S. cerevisiae slowed by influenza A NS1, growth recovery by OD600; also: actives are rising curves; nearly all actives have a fitted effect of over 50% in size
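Growth recovery, yeast-based: influenza A NS1 expressed in S. cerevisiae causes slow growth, and suppressors are detected by OD600. The parent strain without NS1 is used as positive control.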
RE007 growth inh = less growth of the S. pombe RE007 Vpr strain. S. pombe RE007 Vpr strain, BacTiter-Glo ATP luminescence, 24 h; control for the full effect not named in the record. Potency, µM (titrated, usually from 92.2 µM), for inactives: top-dose activity change, negative = less growth. 360,000 tested, 0.21% active. AID 651644; active = well fitted falling curve with a large enough effect; inconclusive = small, poorly fitted or top-dose-only effect; inactive = no such curve, though single readings can be large or run the other way;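 also: % is scaled to controls: 0 for no effect and ±100 for the full control effect; nearly all actives have a fitted effect of over 50% in size; the assay follows cell death caused by Vpr and the record does not say whether a fall means rescue or toxicity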
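Fission yeast RE007 carrying one integrated HIV-1 vpr copy, seeded at OD 0.01 in PMG+AL medium with 23 nL pinned compound. Grown 24 h at 30 degrees; viability read by BacTiter-Glo luminescence after 5 min.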
Marburg entry inh = inhibitors of Marburg virus binding or cell entry; 300,000 tested, 1.8% active; Marburg virus pseudotyped entry inhibition, cell reporter; control for the full effect not named in the record; about a third of the inactives were read at about 46 µM; AID 540276; Potency, µM (series often up to 37.8 µM), for the others: at the highest dose activity change, negative = inhibition, most hits filed as inhibitors; active = well fitted inhibition curve with a large enough effect; inconclusive = small, poorly fitted or top-dose-only effect, or effect the other way; inactive = flat fitted curve, though single readings scatter; tested in HEK293 cells; about a fifth of its hits are not listed in these tables; also: % is scaled to controls: 0 for no effect and ±100 for the full control effect; luciferase read-out
StopGo reporter = lowers the luciferase signal of an FMDV 2A StopGo reporter | human cells with a luciferase reporter of 2A StopGo recoding; control for the full effect not named in the record | AID 1159524 | 410,000 tested, 1.2% active | Potency, µM (highest dose often 57.9 µM), for inactives: at the top dose signal change, negative = less light; active = well fitted falling curve with a large enough effect; inconclusive = small, poorly fitted or top-dose-only effect; inactive = no such curve, though single readings can be large or run the other way; tested in HEK293T cells; also: % is scaled to controls: 0 for no effect and ±100 for the full control effect; nearly all actives have a fitted effect of over 45% in size; luciferase light after 4 h
Cruzain inh noDet = inhibitors of Trypanosoma cruzi cruzain without detergent. AID 1476. purified cruzain, Z-FR-AMC fluorescence, no detergent. P25779. Potency, µM, without a hit: max response, negative = inhibition, most hits filed as inhibitors. 200,000 tested, 2.3% active; active = well fitted curve in the direction sought with a large enough effect; inconclusive = small, poorly fitted or top-dose-only effect, or another doubt; inactive = no such curve, though single readings can be large; an effect the other way counts as inactive or inconclusive;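 also: plate controls were enzyme without inhibitor for no effect and buffer without enzyme for full effect; nearly all actives have a fitted effect of over 40% in size; top concentration of the series not given in the record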
Target sequence (P25779 123-467 limits assumed): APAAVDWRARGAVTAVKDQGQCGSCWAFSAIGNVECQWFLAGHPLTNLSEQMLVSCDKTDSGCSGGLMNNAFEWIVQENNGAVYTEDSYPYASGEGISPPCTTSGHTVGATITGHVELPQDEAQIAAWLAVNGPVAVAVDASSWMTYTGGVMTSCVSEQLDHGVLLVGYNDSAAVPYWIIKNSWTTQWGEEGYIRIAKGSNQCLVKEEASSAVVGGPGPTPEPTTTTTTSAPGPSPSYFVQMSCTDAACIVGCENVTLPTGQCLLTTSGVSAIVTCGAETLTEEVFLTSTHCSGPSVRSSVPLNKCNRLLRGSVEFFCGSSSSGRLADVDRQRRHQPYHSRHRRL
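Purified cruzain at 1.5 nM, pre-incubated 15 min with compound at room temperature in 100 mM sodium acetate pH 5.5, 5 mM DTT, 0.00005% Triton X-100. Reaction started with 2 uM Z-FR-AMC; AMC fluorescence increase over 60 s gives rate.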
LASV entry inh = blocks Lassa virus binding to or entry into cells. Lassa virus pseudotype entry inhibition, cell reporter; control for the full effect not named in the record. Potency, µM (top dose mostly 37.9 µM), without a hit: at the top dose activity change, negative = inhibition, hits mostly inhibitors. 300,000 tested, 1.2% active. AID 540256; active means well fitted inhibition curve with a large enough effect; inconclusive means small, poorly fitted or top-dose-only effect, or effect the other way; inactive means flat fitted curve, though single readings scatter; tested in HEK293 cells; also: % is scaled to controls: 0 for no effect and ±100 for the full control effect; nearly all actives have a fitted effect of over 50% in size; luciferase read-out
SARS PLpro yeast = blocks SARS-CoV papain-like protease in a yeast assay | S. cerevisiae expressing SARS-CoV PLpro, growth rescue; control for the full effect not named in the record | Potency, µM (series often up to 32.9 µM), without a hit: at the highest dose activity, positive = growth rescue | 330,000 tested, 0.19% active | AID 485353; also: 0% is about no effect; nearly all actives have a fitted effect of over 55% in size; growth read by luminescence after 48 h
Cruzain Triton = inhibitors of Trypanosoma cruzi cruzain with detergent | purified cruzain, Z-FR-AMC fluorescence, 0.01% Triton | 200,000 tested, 0.43% active | AID 1478 | Potency, µM, for inactives: max response, negative = inhibition, most hits filed as inhibitors | P25779; active = well fitted curve in the direction sought with a large enough effect; inconclusive = small, poorly fitted or top-dose-only effect, or another doubt; inactive = no such curve, though single readings can be large; an effect the other way counts as inactive or inconclusive;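 also: plate controls were neutral wells for no effect and buffer without enzyme for full effect; nearly all actives have a fitted effect of over 40% in size; top concentration of the series not given in the record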
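Purified cruzain (1.5 nM final) was preincubated with compounds for 15 min at room temperature in 100 mM sodium acetate pH 5.5, 5 mM DTT, 0.01% Triton X-100. Reaction started with 2 uM Z-FR-AMC; AMC fluorescence change over 60 s gave activity.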
* = called active by the depositor; ? = inconclusive; nt = not tested or not shown; & = joins results of further samples; [ ] = remark or other dose. Unless noted, calls follow the shape of the dose curve; as a rule, active means well fitted rising curve with a large enough effect; inconclusive means small, poorly fitted or top-dose-only effect; inactive means no such curve, though single readings can be large or run the other way. Potency is read from the fitted curve at half-maximal effect.

SMILES | NS1 function inh | RE007 growth inh | Marburg entry inh | StopGo reporter | Cruzain inh noDet | LASV entry inh | SARS PLpro yeast | Cruzain Triton
O=C(Cn1cnc2scc(-c3ccc(Cl)cc3)c2c1=O)N1CCOCC1 | ? | -8% | nt | -15% | nt | nt | 0% | nt
O=C(OCc1ccccc1)/C(=C/c1cccc(Br)c1)NC(=O)c1ccco1 | -20% | 1% | ? | ? | nt | -7% | -8% | nt
C=C(NC(=O)C(=C)NC(=O)c1csc(C2=NC3c4csc(n4)C4NC(=O)c5csc(n5)C(C(C)(O)C(C)O)NC(=O)C5CSC(=N5)/C(=C/C)NC(=O)C(C(C)O)NC(=O)c5csc(n5)C3(CC2)NC(=O)C(C)NC(=O)C(=C)NC(=O)C(=C)NC(=O)C(C(C)C)NC2C=Cc3c(C(C)O)cc(nc3C2O)C(=O)OC4C)n1)C(N)=O (stereo not drawn) | nt | -4% | 4µM* | ? | nt | 6.3µM* | nt | nt
CC(C)N(C(=O)CSc1nc2ccccc2c(=O)[nH]1)C(C)C | 5% | -8% | 0%[46.1 µM] | -8% | nt | 19% | 0% | nt
CC1(C)Nc2cccc3cccc(c23)N1 | nt | 3% | 3%[46.1 µM] | 31% | nt | 14%[46.1 µM] | nt | nt
CCCS(=O)(=O)N1CCCC(C(=O)NC2CCCC(C)C2C)C1 (stereo not drawn) | -1% | -13% | 1% | -12% | -3% | 7% | -2% | 5.1%
CC1(C)C2CCC1(CS(=O)(=O)Nc1ccc(S(=O)(=O)N3CCCCC3)cc1)C(=O)C2 (stereo not drawn) | 0% | -6% | ? | -7% | -10% | 3% | -10% | -4.4%
CCOC(=O)c1cc2c(=O)n3ccccc3nc2n(CC2CCCO2)c1=NC(=O)c1ccc(C(C)(C)C)cc1 (stereo not drawn) | nt | nt | 10%[46.1 µM] | -10% | -3% | ? | nt | -1.3%
C[N+]1(CC(COCc2ccccc2)OC(=O)Cc2ccccc2)CCOCC1 (stereo not drawn) | -3% | 2% | -18% | -16% | 2% | 0% | -8% | -0.1%
CC1(C)CC(NC(=O)COc2ccc(Cl)cc2Cl)CC(C)(C)N1 | 3% | 8% | -1%[46.1 µM] | 1% | nt | nt | 1% | nt
CCOc1ccc(NCc2cccn2-c2nnc(N3CCC(C(=O)NCc4ccccc4Cl)CC3)s2)cc1 | nt | nt | 1%[46.1 µM] | ? | -12% | nt | nt | -6.1%
COc1ccc(CN(C)C(=S)Nc2ccc(OC(F)F)cc2)cc1 | nt | 5% | 3%[46.1 µM] | 1% | nt | ? | 9% | nt
CC(C)CN(C(=O)C1CSC2(C)CCC(=O)N12)c1c(N)n(Cc2ccccc2)c(=O)[nH]c1=O (stereo not drawn) | 9% | 8% | nt | -21% | nt | nt | -2% | nt
Cc1ccc(-n2ncc(C(=O)NCCN3CCc4ccccc4C3)c2C2CCNCC2)cc1C | nt | nt | nt | -13% | 6% | 5%[46.1 µM] | nt | -0.4%
O=[N+]([O-])/C(C(=C(Cl)Cl)N1CCN(Cc2ccccc2)CC1)=C1\NCCN1Cc1ccc(Cl)nc1 | nt | 3% | ? | 12% | nt | -11% | -1% | nt
O=C(NCc1ccccc1)c1ccc2c(c1)CCN2S(=O)(=O)c1ccc(Cl)cc1 | nt | nt | -2%[46.1 µM] | -12% | ? | nt | nt | -2.5%
Cc1ccc(Cl)cc1NC(=O)CCn1cccc1 | 8% | 7% | 10% | -5% | -2% | 15% | -3% | 3.8%
O=C(N/N=C/C(Cl)=C/c1ccc([N+](=O)[O-])cc1)C(=O)Nc1ccc(C(=O)O)cc1 | 4% | 19% | nt | -25% | nt | nt | 0% | nt
O=C(COC(=O)c1cc(S(=O)(=O)N2CCOCC2)c(Cl)cc1Cl)NC1CC1 | nt | 9% | -1% | -20% | nt | -10% | 1% | nt
C/C(=N\NC(=O)c1nnn(-c2nonc2N)c1-c1cccs1)c1cccc(O)c1 | -5% | 2% | nt | 0% | nt | nt | 11% | nt
CC(NC(=O)/C(C#N)=C/c1cccs1)c1ccccc1 (stereo not drawn) | nt | 11% | -6%[46.1 µM] | -6% | nt | 16% | -2% | nt
O=C(Nc1ccc(N2CCOCC2)cc1)c1cc2c(s1)CCCCC2 | 0% | 5% | ? | -1% | nt | -22%[46.1 µM] | -1% | nt
C=C1C2C[C@H](O)C(C)(C)[C@@]2(O)[C@H](O)C[C@]23C[C@@](C)(O)[C@H](CC[C@H]12)[C@H]3OC(C)=O (stereo partly drawn) | ? | -5% | 25% | 6% | 10% | 1% | -1% | -0.3%
CCOC(=O)c1c(C)oc2ccc(OCC(=O)N(CC)CC)cc12 | -4% | 4% | -1% | -7% | 0% | 0% | -16% | 4.1%
CN(Cc1c(C(=O)N/N=C/c2cccc(O)c2)nnn1-c1nonc1N)C1CCCCC1 | -16% | -21% | nt | 0% | nt | nt | -2% | nt
Oc1ccc(/C=N/N=C/c2ccc(O)c(O)c2)cc1O | 15% | 11% | ? | 4% | nt | ? | -1% | nt
Cc1ccc(NC(=O)c2cc(NC(=O)c3ccco3)ccc2N2CCCCC2)cc1 | -5% | 0% | ? | -26% | ? | 7% | -4% | -5.6%
O=C(Cn1cccc1C(=O)c1ccccc1)NCCCc1ccccc1 | -3% | 5% | -22%[46.1 µM] | -4% | nt | ? | 3% | nt
c1ccc(-c2nc(NCCCn3ccnc3)c3oc4ccccc4c3n2)cc1 | -17% | -12% | ? | -27% | -14% | -15% | -15% | -1.4%
NC(=O)c1ccc(NC(=O)CCNC(=O)c2ccco2)cc1 | -1% | 7% | 14%[46.1 µM] | -9% | nt | 8%[46.1 µM] | 2% | nt
COc1ccccc1NC(=O)C12CCC(C)(C(=O)C1)C2(C)C (stereo not drawn) | -1% | -3% | 3% | -13% | nt | -11% | 3% | nt
CCCCc1nc(NCCNC(=O)c2ccco2)c(C#N)c2c1CSC(C)(C)C2 | 14% | -16% | -15% | ? | ? | 3% | -8% | -14%
CC/C(=C/c1sc2ccc(C)cc2[n+]1CCO)SC | 3% | -2% | 1%[46.1 µM] | -27% | nt | 14%[46.1 µM] | 1% | nt
O=C(Cn1c(=O)n(Cc2ccc(C(=O)NCc3ccc4c(c3)OCO4)cc2)c(=O)c2ccccc21)Nc1ccc(F)cc1F | nt | nt | -24%[46.1 µM] | 10% | 1% | -16%[46.1 µM] | nt | -1.0%
CCOC(=O)c1ccccc1NC(=O)CN(c1ccccc1)S(=O)(=O)c1ccc(OCC)cc1 | nt | nt | 2%[46.1 µM] | -23% | -7% | -14%[46.1 µM] | nt | -3.6%
CCOC(=O)CN1CC23C=CC(O2)C(C(=O)Nc2ccc(F)c(C)c2)C3C1=O (stereo not drawn) | 5% | -7% | -22%[46.1 µM] | 18% | 11% | -3% | 3% | 3.5%
Brc1ccc(OCCCCN2CCCCC2)cc1 | ? | 2% | nt | -7% | nt | nt | 2% | nt
Clc1cc(Cl)cc(CSc2nnc(-c3sccc3-n3cccc3)o2)c1 | 5% | 1% | -13% | -8% | -23% | -11% | 5% | -2.6%
N#Cc1ccccc1COC(=O)c1ccc(Br)o1 | -2% | -6% | -16%[46.1 µM] | 26% | nt | ? | -22% | nt
CC(C)(C)C1CCc2c(sc3nc(-c4cc5cc(Br)ccc5oc4=O)[nH]c(=O)c23)C1 (stereo not drawn) | nt | nt | nt | -6% | 25% | 25%[46.1 µM] | nt | -0.3%
COCCCNC(=O)C1CCN(c2ccc(N3CCOCC3)nn2)CC1 | -3% | -9% | nt | -21% | nt | nt | 3% | nt
Cc1nc2c(c(=O)c3ccccc3n2C)c(=O)n1-c1ccccc1 | 1% | -20% | 2%[14.2 µM] | 1% | nt | 11% | -1% | nt
CCCCC1(C)OC(=O)C(=Cc2ccc(-c3ccc(Cl)c(C(=O)O)c3)o2)C(=O)O1 (stereo not drawn) | -6% | 0% | 1%[46.1 µM] | 27% | nt | 2% | 1% | nt
CC1(C)CC(=O)C(C(=O)C2CCN(S(=O)(=O)c3ccccc3)CC2)C(=O)C1 | nt | 4% | -5%[46.1 µM] | -17% | nt | 3% | 0% | nt
Cc1cccc(NC(=O)CSc2nnc(-c3ccccc3Br)o2)c1C | -2% | 0% | 0% | -6% | -5% | 10% | 2% | -7.2%
c1ccc(N/N=C2\CCCc3ccccc32)nc1 | nt | -10% | ? | 4% | nt | 1% | 7% | nt
CC(CNC(=O)CN1C(=O)c2cccnc2Oc2ccc(Cl)cc21)c1ccccc1 (stereo not drawn) | 14% | 6% | nt | -9%&-3% | nt | -2%[46.1 µM] | 29% | nt
COc1ccc(NC(=O)COc2ccc(Br)cc2)c(OC)c1 | 15% | -11% | nt | 16% | nt | nt | 4% | nt
CC12CN3CCN(CC(C3)/C1=N\NC(=O)Nc1cccc(Cl)c1)C2 | nt | -1% | ? | 14% | nt | 8%[46.1 µM] | 1% | nt
O=C(O)C1CC=CCC1C(=O)Nc1cccc(F)c1 (stereo not drawn) | -1% | 11% | 22% | nt | -10% | -1% | 2% | 9.2%
O=C(Cn1nc2ccccc2n1)N/N=C/c1ccc(F)cc1 | 7% | -3% | 3%[46.1 µM] | -5% | nt | -14% | -5% | nt
O=C(O)c1ccc(CSc2nc(-c3ccc(Cl)cc3)cc(C(F)(F)F)n2)cc1 | 10% | -13% | -22% | nt | ? | -5% | 10% | -7.4%
Cc1cccc(NC(=S)NNC(=O)Cc2ccccc2)c1 | 1% | 0% | 2% | 14% | 2% | -2% | 17% | -1.5%
COc1cccc(CNC(=O)c2cc3c(=O)n(C)c4ccccc4c3n2C)c1 | nt | nt | 2%[46.1 µM] | -17% | -1% | 20%[46.1 µM] | nt | 3.1%
CC12CC3CC(C)(C1)CC(C(=O)NC(=S)N1CCCCC1)(C3)C2 | -67% | 2% | -16% | nt | 3% | ? | 12% | 5.3%
COc1ccc(C(=O)N2CCC(c3nc4ccccc4s3)CC2)cc1Cl | nt | nt | -6%[46.1 µM] | ? | ? | ? | nt | -10%
Cc1ccccc1NC(=S)/C(=C(\[O-])c1cc(C)n(Cc2ccccc2Cl)c1C)[n+]1ccccc1 | nt | -7% | 19%[14.2 µM] | -25% | nt | 3% | -4% | nt
